miR-21 reporter = miR-21 reporter, rising signal; HeLa miR-21 FLuc reporter, luciferase, 48 h; Potency, µM (doses to about 38.3 µM), inactives show at the top dose reporter change, positive = more light; 340,000 tested, under 10 active; AID 2288; active = well fitted rising curve with a large enough effect; inconclusive = small, poorly fitted or top-dose-only effect; inactive = no such curve, though single readings can be large or run the other way;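 also: % of control where 0% means no effect; miR-21 action dims this reporter so a rising signal means less miR-21 action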
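Luminescence from a firefly luciferase reporter carrying a miR-21 binding site downstream, stably expressed under a CMV promoter in HeLa cells that make miR-21 endogenously, reports miRNA modulation after 48 h compound exposure up to approximately 40uM final.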
Starred values were filed as active, the others as inactive; ? = inconclusive. A portion of the library; count on the stated rates, not on these rows.

SMILES	miR-21 reporter
COc1cccc(N2CCN(S(=O)(=O)c3ccc(-c4cc(C(F)(F)F)on4)s3)CC2)c1	2%
O=S(=O)(NCCc1csc2nc(-c3ccc(F)cc3)nn12)c1ccc(Br)cc1	6%
Cc1ccccc1CNC(=O)C(=O)NCC(c1ccco1)S(=O)(=O)c1ccccc1 (stereo not given)	9%
Cc1oc(-c2ccc(C(=O)NCCc3ccc(Cl)cc3)cc2)nc1CSc1ccccc1	0%
COc1ccccc1NC(=O)Cn1c(=O)n(CCC(=O)NCC2CCCO2)c(=O)c2cc(OC)c(OC)cc21 (stereo not given)	5%
CCCOc1ccc(C(=O)Nc2ccc3oc(-c4cccc(Cl)c4Cl)nc3c2)cc1	-8%
Cc1ccc2c(=O)cc(C(=O)Nc3c(C)n(C)n(-c4ccccc4)c3=O)oc2c1	-2%
COc1ccccc1-c1noc(CCC(=O)Nc2ccc(C)cc2C)n1	-3%
CCCCNC(=O)CN1C(=O)CSc2ccc(S(=O)(=O)N3CCC(C)CC3)cc21	3%
Fc1ccc(-c2noc3ncnc(N4CCN(c5ccccc5)CC4)c23)cc1	3%
Cc1cccc(CNC(=O)C2CCN(S(=O)(=O)c3ccc4c(c3)CCCN4C(=O)C3CCC3)CC2)c1	24%
Cc1ccc(CNC(=O)c2cc(=O)c3cc(C)c(C)cc3o2)cc1	1%
CCOCCCn1c(=N)c(C(=O)NCc2ccco2)cc2c(=O)n3ccccc3nc21	4%
CCOC(=O)c1cc(-c2ccc(C)cc2)n(CC(=O)Nc2ccc(OC)c(Cl)c2)c1C	0%
CC(C)C(=O)N1c2nc(-c3ccco3)nn2C2(CCCCC2)[C@@H]2CCCC[C@@H]21	1%
CCOc1ccc(N2C(=O)c3[nH]nc(-c4ccccc4)c3C2c2ccc(O)c(OC)c2)cc1 (stereo not given)	4%
Cc1noc(C)c1S(=O)(=O)N1CCCC(C(=O)Nc2ccc(C(C)C)cc2)C1 (stereo not given)	-7%
Cc1ccc2oc(C(=O)N3CCC(c4nc5ccccc5s4)CC3)c(C)c2c1	-9%
Cc1cc(C)c2oc(C(=O)Nc3ccc(S(=O)(=O)N4CCCCC4)cc3)cc(=O)c2c1	-2%
CCC1CN(S(=O)(=O)c2cc(-c3onc(C)c3C)ccc2C)c2cc(Cl)ccc2O1 (stereo not given)	13%
Cc1ccccc1Cn1cnc2nc3c(cc2c1=O)CC(C)CC3 (stereo not given)	-26%
CCOc1ccccc1NC(=O)C1=C(C)Nc2ncnn2C1c1cccs1 (stereo not given)	-3%
Cc1noc(-c2ccc(NCc3ccccc3)c([N+](=O)[O-])c2)n1	5%
c1ccc(N2CCN(c3ncnc4[nH]ncc34)CC2)cc1	14%
Cc1ccc(CN(C(=O)COc2c(C)cccc2C)C2CCS(=O)(=O)C2)o1 (stereo not given)	-2%
Cc1cccc(C)c1NC(=O)CCC(=O)N1Cc2ccccc2Oc2ncccc21	-3%
Cc1ccccc1-c1nc(CNC(=O)NC2CCCCC2)c(C)o1	3%
O=C(Nc1ccc(F)c(F)c1)c1cc(S(=O)(=O)N2CCc3ccccc32)ccc1F	12%
COc1ccccc1NC(=O)C1CCCN(c2nnc(C)c3c(C)n(-c4ccccc4)nc23)C1 (stereo not given)	4%
Cc1ccc(CNC(=O)c2cnc(N(C)C)nc2)cc1	-12%

At a glance, part of the list above:
SMILES	miR-21 reporter
CCOc1ccc(N2C(=O)c3[nH]nc(-c4ccccc4)c3C2c2ccc(O)c(OC)c2)cc1 (stereo not given)	4%
Cc1noc(C)c1S(=O)(=O)N1CCCC(C(=O)Nc2ccc(C(C)C)cc2)C1 (stereo not given)	-7%
Cc1ccc2oc(C(=O)N3CCC(c4nc5ccccc5s4)CC3)c(C)c2c1	-9%
Cc1cc(C)c2oc(C(=O)Nc3ccc(S(=O)(=O)N4CCCCC4)cc3)cc(=O)c2c1	-2%
CCC1CN(S(=O)(=O)c2cc(-c3onc(C)c3C)ccc2C)c2cc(Cl)ccc2O1 (stereo not given)	13%
Cc1ccccc1Cn1cnc2nc3c(cc2c1=O)CC(C)CC3 (stereo not given)	-26%
CCOc1ccccc1NC(=O)C1=C(C)Nc2ncnn2C1c1cccs1 (stereo not given)	-3%
Cc1noc(-c2ccc(NCc3ccccc3)c([N+](=O)[O-])c2)n1	5%
c1ccc(N2CCN(c3ncnc4[nH]ncc34)CC2)cc1	14%
Cc1ccc(CN(C(=O)COc2c(C)cccc2C)C2CCS(=O)(=O)C2)o1 (stereo not given)	-2%
Cc1cccc(C)c1NC(=O)CCC(=O)N1Cc2ccccc2Oc2ncccc21	-3%
Cc1ccccc1-c1nc(CNC(=O)NC2CCCCC2)c(C)o1	3%
O=C(Nc1ccc(F)c(F)c1)c1cc(S(=O)(=O)N2CCc3ccccc32)ccc1F	12%
COc1ccccc1NC(=O)C1CCCN(c2nnc(C)c3c(C)n(-c4ccccc4)nc23)C1 (stereo not given)	4%
Cc1ccc(CNC(=O)c2cnc(N(C)C)nc2)cc1	-12%

Next section:
SMILES	miR-21 reporter
Cc1cc(N2CCN(c3cc(Cl)ccc3C)CC2)n2nc(-c3ccccc3)nc2n1	0%
CC1CCCN(C(=O)c2ccc(CSc3nc4ccncc4n3Cc3ccccc3)cc2)C1 (stereo not given)	25%
Cc1ccc(C(=O)Nc2c(C(=O)NC(C)(C)C)oc3ccccc23)cc1	-11%
O=C(/C=C/c1ccccc1Cl)Nc1nc(-c2cccs2)ns1	-35%
Cc1ccc(N(Cc2cccs2)C(=O)C(C)Oc2ccc(Cl)c(C)c2)cc1 (stereo not given)	22%
COc1ccc(NC(=O)CCc2c(C)nn(-c3ccc(N4CCOCC4)nn3)c2C)cc1Cl	-58%
CC(NC(=O)CCCN1C(=O)CCn2nc(-c3cn(C)c4ccccc34)cc21)c1ccccc1 (stereo not given)	15%
COc1cccc(NC(=O)C2CCN(C(=O)N3CC(C)Oc4ccccc43)CC2)c1 (stereo not given)	3%
COc1ccc(NC(=O)c2c(NC(=O)Cc3ccccc3)sc3c2CCCC3)cc1	-6%
CCc1ccc(C2CC(=O)Nc3c2c(C)nn3-c2nc(C)cc(C)n2)cc1 (stereo not given)	20%
CCN(CC)c1ccc(NC(=O)C2CCN(c3nnc(-n4cccc4)s3)CC2)c(C)c1	6%
Cc1ccc(CCNC(=O)c2cc3sccc3n2Cc2ccc(Cl)cc2)cc1	-1%
Cc1ccc(N2CCN(C(=O)c3cnn(-c4ccc(F)cc4F)c3C3CCN(C(=O)OC(C)(C)C)CC3)CC2)c(C)c1	1%
CCCOc1ccc(Oc2nc(NCC(C)C)nc(N(C)C)n2)nn1	18%
COc1ccccc1CNc1cc(C)nc2nc(-c3ccc(C)cc3)nn12	-17%
COc1cccc(C(=O)Nc2cccc(OCc3cc(=O)n4cc(C)ccc4n3)c2)c1	-2%
Cc1c(C(=O)N(C)C)sc2c1c(=O)n(-c1ccc(F)cc1)c(=O)n2Cc1cc(=O)n2ccccc2n1	-7%
CCc1cc(C(=O)N2CCN(c3ccccc3)CC2)no1	-31%
COc1ccc2nc(NC(=O)c3nc(S(=O)(=O)Cc4ccc(C)cc4)ncc3Cl)sc2c1	?
O=C(CSc1nnc(-c2ccccc2)c(-c2ccccc2)n1)Nc1ccccc1Cl	8%
CCOC(=O)C1CCN(Cc2cn3c(-c4ccc(OC)cc4)nnc3s2)CC1	-2%
COc1cccc(CN2C(=O)C3(SCC(=O)N3c3ccc(C(C)C)cc3)c3ccccc32)c1 (stereo not given)	?
Cc1ccccc1OCc1nnc(SCc2cc(=O)c3cc(F)ccc3[nH]2)n1C	5%
CC(NC(=O)c1cc2c(=O)n3ccccc3nc2n(C(C)C)c1=N)c1ccccc1 (stereo not given)	-1%
Cc1ccc2nc(NC(=O)c3cc(=O)c4cc(Cl)ccc4o3)sc2c1	-6%
O=C(CCCn1c(=O)c2sccc2n(Cc2ccc(F)cc2Cl)c1=O)NCc1ccc2c(c1)OCO2	0%
Cc1ccc2c(CC(=O)N3CCN(c4cccc(Cl)c4)CC3)coc2c1	-4%
CC(NC(=O)CSc1n[nH]c(-c2ccccc2)n1)c1nc2ccccc2n1C (stereo not given)	3%
COc1ccc(-c2nnc(SCC(=O)c3ccc([N+](=O)[O-])cc3)o2)cc1OC	-1%
CCOc1ccc(CNC(=O)CCCn2nc(C)c3sc4ccccc4c3c2=O)cc1	-16%
Cc1ccc(Cc2nc3ccccc3nc2SCC(=O)Nc2ccc3c(c2)OCO3)cc1	3%
CCCC1N=C2c3ccccc3N=C(SCC(=O)NCCc3ccc(Cl)cc3)N2C1=O (stereo not given)	-2%
Cn1c(NCc2ccccc2F)nc2ccccc21	-49%
O=C(COCc1cc(-c2ccc3c(c2)OCO3)on1)Nc1cc(Cl)ccc1O	0%
O=C(NCCCc1nc2ccccc2n1Cc1ccccc1Cl)c1ccco1	6%
COC(=O)c1c(SCC(=O)Nc2cc(C)cc(C)c2)[nH]c2ccccc2c1=O	0%
COc1ccc(CCN2C(=O)N(c3ccc(C)cc3)C(=O)C2CC(=O)Nc2ccc(F)cc2)cc1 (stereo not given)	19%
CCCCOC(=O)c1ccc(NC(=O)c2cc3c(=O)n4cccc(C)c4nc3s2)cc1	-1%
COc1ccc2sc(N(Cc3cccnc3)C(=O)c3cccs3)nc2c1	8%
CCCCc1nn2c(=O)cc(COC(=O)C3CCCCC3)nc2s1	0%
Cc1ccc(Cc2cn3cc(-c4ccccc4)nc3s2)cc1	-6%
COC(=O)c1ccc(Cn2c(=O)cc(C(F)(F)F)c3c(C)nn(C)c32)cc1	-1%
Cc1cc(C)cc(OCC(=O)Nc2c(C)ccc3nsnc23)c1	4%
Cc1ccc(C(=O)Nc2nnc(SCc3cc(=O)c4c(C)ccc(C)c4[nH]3)s2)cc1	-3%
O=C(CSc1nc(=O)n(Cc2cccnc2)c2c1CCC2)Nc1cccc(Cl)c1	10%
COc1cc(NC(=O)c2ccc(-c3nc(CSc4ccccc4)c(C)o3)cc2)cc(OC)c1	25%
COc1ccc(S(=O)(=O)c2nnn(-c3ccc(C(C)C)cc3)c2C)cc1	8%
CSc1ncc(C(=O)Nc2ccccc2C(F)(F)F)c(-c2ccccc2)n1	-4%
O=c1cc(CSc2ncn[nH]2)[nH]c2ccc(F)cc12	-1%
CCCSc1nnc2c(n1)OC(c1ccc(Br)s1)Nc1ccccc1-2 (stereo not given)	-51%

The closing two compounds of the part before are carried over, then new ones follow.
SMILES	miR-21 reporter
O=c1cc(CSc2ncn[nH]2)[nH]c2ccc(F)cc12	-1%
CCCSc1nnc2c(n1)OC(c1ccc(Br)s1)Nc1ccccc1-2 (stereo not given)	-51%
Cc1cccc(-n2ncc(C(=O)N3CCc4ccccc4C3)c2C2CCN(C(=O)OC(C)(C)C)CC2)c1	1%
CC1=C(C(=O)OCc2ccc(C)cc2)C(c2ccccc2F)CC(=O)N1 (stereo not given)	26%
Cc1noc(Cn2c(=O)c3ccccc3n(CC(=O)Nc3cc(Cl)ccc3C)c2=O)n1	3%
COC(=O)c1cc2sccc2n1CC(=O)Nc1ccc(OC)c(OC)c1	6%
COc1ccc(-c2cc3nc(C)c(CCC(=O)N4CCN(c5ccccc5)CC4)c(C)n3n2)c(OC)c1	1%
CC(C)c1ccc(NC(=O)C2CCCN(S(=O)(=O)c3ccc(Br)s3)C2)cc1 (stereo not given)	25%
COc1ccc(N(CC(=O)N2CCN(c3ccc(F)cc3)CC2)S(=O)(=O)c2c(C)nn(C)c2C)cc1	-7%
CCCCCn1c(=O)[nH]c2cc(C(=O)NCc3ccccc3)ccc2c1=O	-9%
Cc1cc(OCC(=O)N(Cc2ccc(N(C)C)cc2)C2CCS(=O)(=O)C2)cc(C)c1Cl (stereo not given)	11%
COc1cc(NC(=O)N2CCC3(CC2)Nc2ccccc2-n2cccc23)cc(OC)c1OC	-1%
Cc1csc2nc(COC(=O)CNC(=O)c3ccc(F)cc3)cc(=O)n12	-1%
CCOc1ccc(CCNC(=O)c2ccc3c(c2)NC(=O)C2CCCN32)cc1OCC (stereo not given)	-1%
Cc1sc2c(c1C)c(=O)n(-c1ccc(Cl)cc1)c(=O)n2Cc1c(F)cccc1Cl	0%
NC(=O)C1CCN(c2csc3ccc(F)cc3c2=O)CC1	-1%
Cc1cccc(-c2nc3c4ccccc4nc(NCc4ccccc4Cl)n3n2)c1	-45%
O=C(CSc1nc(-c2ccc(F)cc2)cc(C(F)(F)F)n1)NCc1ccccc1	-15%
CCOC(=O)Cn1c(=O)oc2cc(S(=O)(=O)N3CCN(c4cccc(C)c4)C(C)C3)ccc21 (stereo not given)	0%
Cc1cc(C)c2oc(C(=O)Nc3c(C(=O)c4ccccc4)oc4ccccc34)cc(=O)c2c1	-2%
Cc1cc(-c2ccc(C)c(S(=O)(=O)NC3CCCCC3)c2)on1	1%
N#Cc1c(C(F)(F)F)cc(-c2cccs2)nc1SCc1ccccc1F	-4%
Cc1cc2nn(-c3ccc(Cl)cc3)nc2cc1NC(=O)C(C)C	-31%
O=c1c(=O)n(-c2ccc(F)c(F)c2)ccn1Cc1ccc(F)cc1Cl	-6%
CCOC(=O)c1ccccc1NC(=O)NCc1cccn1Cc1ccc(F)cc1	17%
COc1cccc(C(=O)Nc2ccc(-c3cn4cccnc4n3)cc2)c1OC	-37%
CCC(=O)N1c2ccc(S(=O)(=O)N3CCC(C)CC3)cc2CC1C (stereo not given)	-21%
Cc1ccc(Nc2c(-c3cccnc3)nc3ccc(Cl)cn23)cc1	-1%
O=C(NCC(c1ccc2c(c1)OCO2)N1CCOCC1)c1cccc(Cl)c1 (stereo not given)	17%
CC(C)c1ccc(OCC(=O)Nc2ccc(S(=O)(=O)Nc3ncccn3)cc2)cc1	-11%
COc1cc2c(cc1NC(=O)COc1ccc(Br)cc1C)oc1ccccc12	-1%
COC(=O)CCN(c1ccccc1)C(CNS(=O)(=O)c1ccccc1)c1ccccc1 (stereo not given)	?
Cc1nc2nc(NC(=O)c3ccc(C(C)(C)C)cc3)[nH]n2c(=O)c1Cc1ccccc1	-2%
CCOc1ccc(-c2nc(SCC(=O)Nc3ccc4c(c3)OCO4)c(-c3ccc(F)cc3)[nH]2)cc1	-3%
Cc1cc(N2CCC(C(=O)N(CC(C)C)CC(C)C)CC2)n2nc(C)c(-c3ccc(Cl)cc3)c2n1	2%
Cc1cc(Nc2cccc(C(F)(F)F)c2)nc2ccc(NC(=O)c3cncc(Br)c3)cc12	-6%

Screening data from PubChem BioAssay.
